Screening results as filed in PubChem BioAssay.
CBX7 inh = CBX7 inhibition, primary AlphaScreen; O95931; AlphaScreen His6-CBX7 / biotin-H3K27me3 peptide binding; hits give low values; normalised signal (fraction of DMSO) (test concentration not listed); 1.1% of 66,000 active; AID 1224903; in the data active = normalised signal below about 0.5;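 note: 100 nL library stock added to about 20 µL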
Target sequence (O95931 whole entry, looked up): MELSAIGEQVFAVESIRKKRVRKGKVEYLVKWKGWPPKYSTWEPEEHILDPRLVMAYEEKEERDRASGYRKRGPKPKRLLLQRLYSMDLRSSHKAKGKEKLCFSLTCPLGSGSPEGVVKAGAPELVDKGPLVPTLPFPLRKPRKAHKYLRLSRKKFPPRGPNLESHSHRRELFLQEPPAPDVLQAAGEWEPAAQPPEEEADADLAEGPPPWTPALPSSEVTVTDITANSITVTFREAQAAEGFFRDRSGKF
CBX7 inh z-score = further read-out of CBX7 inh, marked with its call; z-score; measured here: z-score of CBX7 signal; some inactives read as strong as hits; reference of the scale not given here;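 same signal on another scale; lower means less binding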
* = called active by the depositor. Some of the compounds tested; count on the stated rates, not on these rows.

SMILES	CBX7 inh	CBX7 inh z-score
CCc1cccc(C)c1NC(=O)c1cc(C)nn1-c1ccccc1	1.1	2.1
COc1ccc(-n2nc3c(c2NC(=O)c2cccc(OC)c2)CS(=O)(=O)C3)cc1	0.94	-0.72
O=C(NC1CCCC1)C1c2cccn2CC(=O)N1Cc1cccnc1 (stereo not drawn)	1.1	2.1
COc1ccc(C2CC(=O)NC3=C2C(=O)CCC3)cc1Cl (stereo not drawn)	1	0.019
CC1(C)NC(=O)N(CC(O)COc2ccc(-c3ccc(C#N)cc3)cc2)C1=O (stereo not drawn)	0.95	-2.4
COCCCNC(=O)c1cnc(N2CCN(c3ncccn3)CC2)c2ccccc12	1.1	0.63
COc1ccc(OC)c2[nH]c(=O)c(CCNS(=O)(=O)c3ccc(Br)cc3)cc12	0.98	-0.29
Cc1cc(C)cc(-c2nnc(-c3ccc(-c4ccccc4)cc3)o2)c1	1.3	2.3
O=C(NCCc1ccccc1)c1cnc2sccn2c1=O	0.92	-1.7
O=C(NCc1ccccc1)C(Cc1ccccc1)NS(=O)(=O)c1cccc2cccnc12 (stereo not drawn)	1.1	1.2
Cc1cc(C)c(NC(=O)c2ccc3c(c2)NC(=O)c2ccccc2S3)c(C)c1	0.97	-0.88
O=C(CCCNS(=O)(=O)c1ccc2c(c1)CCC(=O)N2)NCc1ccccc1	1	0.97
CCOC(=O)c1c(NC(=O)c2ccco2)sc2c1CCC(C#N)(c1ccccc1)C2 (stereo not drawn)	1	-0.018
CNC(=O)C1CCC(=O)N1Cc1ccccc1Cl (stereo not drawn)	1.1	1.6
O=C(Cn1cnc2sc3c(c2c1=O)CCCC3)Nc1ccc(F)c(Cl)c1	0.99	-0.3
Cc1c(Cl)cccc1NC(=O)c1oc2ccc(S(=O)(=O)N3CC(C)CC(C)C3)cc2c1C (stereo not drawn)	0.99	-0.29
O=C(CSc1ncn[nH]1)NCc1n[nH]c(=O)c2ccccc12	0.96	-0.48
O=C(Cc1ccccc1)Nc1c2c(nn1-c1ccc(F)cc1)CS(=O)(=O)C2	1	0.21
COc1ccc(-c2cc(C(=O)Nc3ccc(C#N)cc3)no2)cc1	0.91	-2
Cc1cc(C)nc(NS(=O)(=O)c2ccc(NC(=O)c3ccc(-c4ccccc4)cc3)cc2)n1	1	0.19
Cc1cc(NS(=O)(=O)c2ccc(Nc3nc(-c4ccc(C(C)C)cc4)cs3)cc2)no1	1	0.35
CC(=O)Nc1cccc(NC(=O)c2sc3ncn(CC(=O)N4CCCCC4)c(=O)c3c2C)c1	1	0.23
Cc1cccc2nc(-c3ccncc3)c(Nc3ccc4c(c3)OCO4)n12	0.99	-0.33
COc1cc2c(c(OC)c1)C(c1cccc(OC)c1OC)CC(=O)N2 (stereo not drawn)	1.1	1
O=C(Nc1ccc2c(c1)OCCO2)C(c1ccc(F)cc1)N1CCCCC1 (stereo not drawn)	1.1	1.8

Continued:
SMILES	CBX7 inh	CBX7 inh z-score
Cc1[nH]c2ccc(Cl)c3c2c1CCN1C(=O)OC(C)(C)C31C (stereo not drawn)	0.93	-2
COC(=O)c1cccc(OCC(O)Cn2c(C)nc3ccccc32)c1 (stereo not drawn)	1	0.25
COc1ccccc1Oc1nc(-c2ccccc2)c2cc(Br)ccc2n1	0.88	-2.1
CC(C)CCNC(=O)c1cc(-c2cccnc2)nc2ccc(S(=O)(=O)N3CCC(C)CC3)cc12	0.99	-0.31
O=C(Nc1cccc(F)c1)[C@H](CSCc1ccccc1)N1Cc2ccccc2C1=O	0.84	-3.7
O=C(CCCN1C(=O)c2cccnc2C1=O)Nc1ccc(F)c(F)c1	1.1	0.21
COc1ccc(-c2noc(COc3cc(C)c(Cl)c(C)c3)n2)cc1	1.3	3.7
O=C(CSc1ncc(-c2ccccc2)[nH]1)NC1CCCCC1	0.83	-4.3
CC(C)C(=O)Nc1c(C(=O)Nc2ccccc2F)oc2ccccc12	1	1
COc1ccc(-c2c(C)nn3c(N4CCN(c5ccccc5F)CC4)cc(C)nc23)cc1OC	0.95	-1.2
CCOc1ccc(C2NCCc3cc(OCC)c(OC)cc32)cc1 (stereo not drawn)	0.99	-0.05
COc1ccccc1CN1C(=O)c2ccccc2C1C(=O)NCCc1ccccc1 (stereo not drawn)	0.97	-1.3
CCOc1ccc(CCNC(=O)c2csc3c2CCCCC3)cc1OCC	1.1	1.4
COc1ccc(-c2nc3cc(C(F)(F)F)cc(Br)c3nc2-c2ccc(OC)cc2)cc1	1.3	2
CCc1nnc(NC(=O)CSc2nccn2-c2ccc(OC)cc2)s1	1.1	1.8
COC(=O)c1nc2ccccc2n1Cc1ccc(C)cc1	0.94	-1.5
O=C(CN1C(=O)COc2ccc(S(=O)(=O)N3CCOCC3)cc21)N1CCN(c2ncccn2)CC1	1	0.16
COc1ccc(OC)c(NC(=O)c2cc3c(s2)-c2ccccc2OC3)c1	1.4	19
COc1ccc(-c2nc(S(=O)(=O)c3ccc(C)cc3)c(N3CCOCC3)o2)cc1	1	0.3
CCc1nc(Sc2nnnn2-c2ccccc2)c2c3c(sc2n1)CCCC3	0.65	-0.7
CCCCNC(=O)CCN1N=C(c2ccc(CC)cc2)CCC1=O	1	0.76
COc1ccc(-n2c(C)nc3cc(C(=O)NCCN4CCOCC4)ccc32)cc1	0.99	-0.36
Cc1oc(-c2cccc(Br)c2)nc1CN1CCC(C(=O)NCc2ccc(Cl)cc2)CC1	1.1	2.4
Cc1ccc(-c2nnc(SCC(=O)N3CCCCC3)o2)cc1	0.94	-0.14
CCOC(=O)c1c(NC(C)=O)sc2c(OCC(O)CN3CCCCC3)c(Br)ccc12 (stereo not drawn)	1	0.64

Additional structures.
SMILES	CBX7 inh	CBX7 inh z-score
CC(=O)C12CC3CC(C1)CC(C(C)=O)(C3)C2	0.78	-2.4
Cc1onc(-c2ccccc2)c1C(=O)Nc1ccc(Br)cc1	1.4	1.6
CN1CCN(C(=O)c2cnn(-c3ccccc3)c2-n2cccc2)CC1	1.1	2.1
CCOc1ccc2nc(N3CCCC(C(=O)N4CCN(C)CC4)C3)sc2c1 (stereo not drawn)	0.38*	-12*
O=C(NC1CCCCCCC1)C1c2cccn2CC(=O)N1CCc1ccccc1 (stereo not drawn)	0.97	-0.072
CCCCNC(=O)C1CCN(Cc2nc(-c3ccccc3C)oc2C)CC1	0.84	-2.5
O=C(Nc1ccc(Br)cc1)C12CC3CC(C1)CC(n1cncn1)(C3)C2	1	-0.085
CC(=O)N1CCc2cc(S(=O)(=O)NC(C(=O)Nc3cc(C)ccn3)C(C)C)ccc21 (stereo not drawn)	1	0.34
O=C(Nc1nc2ccc(Br)cc2s1)c1cccc(Oc2ccccc2)c1	1.1	2.5
CCCOc1ccc(N2C(=O)CC(NCCc3ccc(OC)c(OC)c3)C2=O)cc1 (stereo not drawn)	1.2	1.6
Cc1cc(N2CCN(c3cccc(Cl)c3)CC2)n2nc(-c3ccccc3)cc2n1	0.81	-1.9
CC(C)(C)c1ccc(-c2nc(NCCN3CCOCC3)c3ccccc3n2)cc1	0.92	-2.1
COc1ccc(-c2noc(CCC(=O)Nc3ccc(F)cc3)n2)cc1	0.88	-1.8
CCOc1ccc(N2C(=O)c3ccccc3C2Nc2ccc(OC)c(OC)c2)cc1 (stereo not drawn)	0.79	-7
COc1ccc(-c2nc(CSCC(=O)NCc3cccnc3)c(C)o2)cc1OC	1	0.015
Cc1nc2ncnn2c(C)c1Cc1ccc(Cl)cc1	1	-0.11
COc1cccc(CNC(=O)c2cnn3c(C)c(Cc4ccc(Cl)cc4)c(C)nc23)c1	0.91	-2.6
CC1(C)CC(=O)N(CC(=O)NCc2ccc(Cl)cc2)c2ccccc2S1	0.98	-0.5
COc1cccc(-c2nc(CS(=O)(=O)CC(=O)NC(C)c3ccccc3)c(C)o2)c1 (stereo not drawn)	0.94	-1.1
Cc1ccc(CCNC(=O)CCc2nc3sc4c(c3c(=O)[nH]2)CCCC4)cc1	1	1.7
CC(CCc1ccccc1)NC(=O)c1nnc(Cc2ccc(F)cc2)o1 (stereo not drawn)	1.2	2
O=c1[nH]c(-c2ccc3c(c2)OCO3)cn1-c1ccccc1	0.95	-1.2
COc1ccc(-c2nc(Nc3cccc(F)c3)c3ccccc3n2)cc1OC	1	0.67
CCCCNC(=O)CN1C(=O)COc2ccc(S(=O)(=O)N3CCCC3)cc21	1.2	5.1
CCN(CCCNC(=O)c1cn(-c2ccc(OC)cc2)c(=O)c2ccccc12)c1cccc(C)c1	0.74	-6.2

Going on with the list:
SMILES	CBX7 inh	CBX7 inh z-score
COc1cccc(NS(=O)(=O)c2c(C)noc2C)c1	1	0.78
c1ccc(COc2cccc(CNCc3cccnc3)c2)cc1	0.74	-2.8
O=C(CN1C(=O)COc2ccc(S(=O)(=O)N3CCCCCC3)cc21)NCCCN1CCOCC1	1	0.47
Clc1ccc(OCCCc2nc(-c3cccnc3)no2)c(Cl)c1	1.1	0.15
O=C1CC(c2ccc(F)c(Br)c2)c2cc3c(cc2N1)OCO3 (stereo not drawn)	0.95	-0.69
COCCCNC(=O)C1CCC(=O)N1Cc1ccc(C)cc1 (stereo not drawn)	0.98	-0.35
COc1ccc(-c2csc(Nc3cccc(Cl)c3C)n2)cc1	0.74	-3.8
COc1ccc(CCNC(=O)c2cc(-c3ccc(Br)cc3)on2)cc1OC	1.1	0.089
Cc1ccccc1Cn1nc(C)c(NC(=O)c2cc(-c3cccc(Cl)c3)on2)c1C	0.91	-0.67
CCC(C(=O)NCCc1ccc(OC)c(OC)c1)n1ncc2ccccc21 (stereo not drawn)	0.91	-2.2
Cc1onc(-c2ccccc2Cl)c1C(=O)NC(C)Cc1c[nH]c2ccccc12 (stereo not drawn)	0.97	-0.54
COc1ccc(C2CC(=O)C3=C(C2)Nc2ccccc2NC3c2ccncc2)cc1OC (stereo not drawn)	1	0.94
CCCCN(CCCC)CC(O)CN(c1ccc(C)cc1)S(=O)(=O)c1ccccc1 (stereo not drawn)	1	0.0037
CCOc1ccc(OCC)c(NC(=O)C2CCCN2S(=O)(=O)c2cccc3cccnc23)c1 (stereo not drawn)	0.98	-0.77
Fc1ccc(CNc2nc(-c3ccc(F)cc3)cc(C(F)(F)F)n2)cc1	1.1	0.96
COc1ccc(CN(C(=O)COc2ccccc2OC)C2CCS(=O)(=O)C2)cc1 (stereo not drawn)	1.1	0.11
CCCCC(=O)N1c2ccccc2NC2=C(C(=O)CCC2)C1c1ccc(O)c(OC)c1 (stereo not drawn)	1	-0.21
O=c1c2nnn(Cc3ccc(F)cc3)c2ncn1C/C=C/c1ccccc1	0.85	-2.4
Cc1ccc(C)c(N(C)C(=O)Cn2ncc3c2-c2ccccc2OC3)c1	0.93	-2
COCCNC(=O)CNC(=O)Cn1cnc2sc(C)c(C)c2c1=O	1.3	2.5
COc1cccc(NC(=O)CN(c2ccc(C(C)C)cc2)S(=O)(=O)c2c(C)n[nH]c2C)c1	1	0.029
Cc1ccc(Cn2cnc3c(cnn3-c3ccccc3)c2=O)c(C)c1	1	-0.029
Nc1nonc1-c1nc2ccccc2n1Cc1ccncc1	0.97	-1.4
COc1ccc(CNC(=O)c2cc(-c3ccc(F)cc3)on2)cc1	1.1	0.17
CNS(=O)(=O)c1cc(-c2nnc(Nc3ccc(F)cc3)c3ccccc23)ccc1C	0.9	-1.1

Other records.
SMILES	CBX7 inh	CBX7 inh z-score
CN1C(=O)CSc2ccc(NC(=O)Nc3ccc(Br)cc3F)cc21	0.93	-1.5
COc1cccc(-c2nnc(SCC(=O)N3CCC(C)CC3)o2)c1	1.3	5.2
O=C(NCCC1=CCCCC1)C1=CCN(S(=O)(=O)c2ccc(Br)cc2)CC1	1	1.2
Cc1cc(C)c2c(n1)SCC(=O)N2CC(=O)N1CCOCC1	1.1	2.3
CCc1ccccc1NC(=O)c1cc2c(s1)-c1ccccc1OC2	1.5	13
CCOc1ccc(S(=O)(=O)Nc2cccc(-c3cn4cccc(C)c4n3)c2)cc1	1	0.055
COc1cccc(-c2cc(C(F)(F)F)nc(NCCc3ccc(OC)c(OC)c3)n2)c1	1.2	1.6
COc1ccc(N(C)S(=O)(=O)c2ccc3c(c2)CCN3C(=O)CCC(=O)O)cc1	0.91	-1.5
Cc1ccc(-c2nc(S(=O)(=O)c3ccc(Cl)cc3)c(N3CCOCC3)o2)cc1	0.86	-3.2

19 successive compounds already listed, for reference:
SMILES	CBX7 inh	CBX7 inh z-score
CCCCN(CCCC)CC(O)CN(c1ccc(C)cc1)S(=O)(=O)c1ccccc1 (stereo not drawn)	1	0.0037
CCOc1ccc(OCC)c(NC(=O)C2CCCN2S(=O)(=O)c2cccc3cccnc23)c1 (stereo not drawn)	0.98	-0.77
Fc1ccc(CNc2nc(-c3ccc(F)cc3)cc(C(F)(F)F)n2)cc1	1.1	0.96
COc1ccc(CN(C(=O)COc2ccccc2OC)C2CCS(=O)(=O)C2)cc1 (stereo not drawn)	1.1	0.11
CCCCC(=O)N1c2ccccc2NC2=C(C(=O)CCC2)C1c1ccc(O)c(OC)c1 (stereo not drawn)	1	-0.21
O=c1c2nnn(Cc3ccc(F)cc3)c2ncn1C/C=C/c1ccccc1	0.85	-2.4
Cc1ccc(C)c(N(C)C(=O)Cn2ncc3c2-c2ccccc2OC3)c1	0.93	-2
COCCNC(=O)CNC(=O)Cn1cnc2sc(C)c(C)c2c1=O	1.3	2.5
COc1cccc(NC(=O)CN(c2ccc(C(C)C)cc2)S(=O)(=O)c2c(C)n[nH]c2C)c1	1	0.029
Cc1ccc(Cn2cnc3c(cnn3-c3ccccc3)c2=O)c(C)c1	1	-0.029
Nc1nonc1-c1nc2ccccc2n1Cc1ccncc1	0.97	-1.4
COc1ccc(CNC(=O)c2cc(-c3ccc(F)cc3)on2)cc1	1.1	0.17
CNS(=O)(=O)c1cc(-c2nnc(Nc3ccc(F)cc3)c3ccccc23)ccc1C	0.9	-1.1
CN1C(=O)CSc2ccc(NC(=O)Nc3ccc(Br)cc3F)cc21	0.93	-1.5
COc1cccc(-c2nnc(SCC(=O)N3CCC(C)CC3)o2)c1	1.3	5.2
O=C(NCCC1=CCCCC1)C1=CCN(S(=O)(=O)c2ccc(Br)cc2)CC1	1	1.2
Cc1cc(C)c2c(n1)SCC(=O)N2CC(=O)N1CCOCC1	1.1	2.3
CCc1ccccc1NC(=O)c1cc2c(s1)-c1ccccc1OC2	1.5	13
CCOc1ccc(S(=O)(=O)Nc2cccc(-c3cn4cccc(C)c4n3)c2)cc1	1	0.055
